RVFV N-RNA FP: blocks Rift Valley Fever Virus nucleoprotein binding to RNA | 20,000 compounds, 0.1% hits | P21700 | % bound, % (concentration not given with the values) | RVFV N-RNA binding, fluorescence polarization; stronger effect = lower value;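 active = between 0 and 58% in either replicate with normal brightness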;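 note: 100 nL library stock added to about 12 µL; 100% = protein and probe without compound and 0% = probe alone; numbers are from one replicate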
Target sequence (P21700 whole entry, looked up): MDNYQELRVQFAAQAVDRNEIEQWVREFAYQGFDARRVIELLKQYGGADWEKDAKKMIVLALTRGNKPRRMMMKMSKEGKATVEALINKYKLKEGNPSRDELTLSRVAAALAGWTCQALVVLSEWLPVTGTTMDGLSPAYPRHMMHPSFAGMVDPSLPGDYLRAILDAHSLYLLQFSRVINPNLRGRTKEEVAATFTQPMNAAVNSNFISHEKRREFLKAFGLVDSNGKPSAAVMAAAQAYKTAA
* = called active by the depositor.

For O=C1CSC(c2cccnc2)N1Cc1cccnc1 (configuration not stated) the results were RVFV N-RNA FP 89.
Screening CCOC(=O)C1CCN(C(=O)CCc2ccccc2)CC1 returned RVFV N-RNA FP 97.
For C[C@]12CC[C@H](O)CC1=CCC1C2CC[C@]2(C)C(=O)CC[C@@H]12 (some centres not stated) the results were RVFV N-RNA FP 104.
S=C(c1cccc(Br)c1)N1CCNCC1 was read as RVFV N-RNA FP 97.
`O=C(NCc1ccc2c(c1)OCO2)Nc1ccc2ccccc2c1` gave RVFV N-RNA FP 108.
For CNC(=S)NNS(=O)(=O)c1ccc(Cl)cc1 the results were RVFV N-RNA FP 93.
CCOC(=O)c1c(SCC)nc(=O)[nH]c1C was read as RVFV N-RNA FP 96.
`CC(NC(=O)NC(C)(C)C)c1ccccc1` (configuration not stated) gave RVFV N-RNA FP 98.
For O=c1ccc(-c2ccc3c(c2)OCO3)nn1Cc1ccc(F)cc1 the results were RVFV N-RNA FP 86.
Screening NC(Cc1cc(O)c(O)cc1O)C(=O)O (configuration not stated) returned RVFV N-RNA FP 89.
For CCOC(=O)c1c(C)noc1/C(C)=N\OC(=O)c1ccccc1 the results were RVFV N-RNA FP 92.
For NNc1cc(C(F)(F)F)nc2ccccc12 the results were RVFV N-RNA FP 96.
O/N=C/c1ccc(OCc2ccccc2)cc1 was read as RVFV N-RNA FP 102.
For COc1cc2c(cc1O)CC[C@@H]1[C@@H]2CC[C@]2(C)[C@@H](O)CC[C@@H]12 the results were RVFV N-RNA FP 99.
Screening CN1C(=O)CC(c2ccccc2)C1=O (configuration not stated) returned RVFV N-RNA FP 104.
CCOC(=O)c1c(C)c(C#N)c(NC(=O)c2ccccc2)n1-c1ccccc1 was read as RVFV N-RNA FP 96.
`Nc1ccc(C2CCCc3nonc32)c2nonc12` (configuration not stated) gave RVFV N-RNA FP 101.
`O=C1C(=O)c2ccccc2C(O)=C1c1ccc(Cl)cc1` gave RVFV N-RNA FP 96.
`O=C(O)c1ccc(I)o1` gave RVFV N-RNA FP 98.
`CC1CCc2c(sc(NC(=O)C3CCCN3S(=O)(=O)c3cccs3)c2C(N)=O)C1` (configuration not stated) gave RVFV N-RNA FP 96.
Screening CC(C)CC(=O)NC(=S)Nc1ccc(NC(=O)c2ccco2)cc1 returned RVFV N-RNA FP 92.
`O=C(c1ccc(Cl)cc1Cl)N1CCN(C(=O)C2CCCCC2)CC1` gave RVFV N-RNA FP 95.
`CN(C)c1ccc(C=NCC(O)CN=Cc2ccc(N(C)C)cc2)cc1` (configuration not stated) gave RVFV N-RNA FP 97.
For CCOC(=O)N1CCC(n2c(=S)[nH]c3ccccc3c2=O)CC1 the results were RVFV N-RNA FP 98.

Some of these compounds in order of count of non-hydrogen atoms, largest number first.
`O=C(c1ccc(Cl)cc1Cl)N1CCN(C(=O)C2CCCCC2)CC1` gave RVFV N-RNA FP 95.
For CCOC(=O)N1CCC(n2c(=S)[nH]c3ccccc3c2=O)CC1 the results were RVFV N-RNA FP 98.
For COc1cc2c(cc1O)CC[C@@H]1[C@@H]2CC[C@]2(C)[C@@H](O)CC[C@@H]12 the results were RVFV N-RNA FP 99.
`O=C1C(=O)c2ccccc2C(O)=C1c1ccc(Cl)cc1` gave RVFV N-RNA FP 96.
CCOC(=O)c1c(SCC)nc(=O)[nH]c1C was read as RVFV N-RNA FP 96.
S=C(c1cccc(Br)c1)N1CCNCC1 was read as RVFV N-RNA FP 97.
Screening CN1C(=O)CC(c2ccccc2)C1=O (configuration not stated) returned RVFV N-RNA FP 104.

The results go on:
`O=C(CCc1ccccc1)NNc1c(Cl)cncc1Cl` gave RVFV N-RNA FP 83.
Screening Cc1ccc(-n2c(N)c(C(=O)NCc3ccco3)sc2=S)cc1 returned RVFV N-RNA FP 98.
For Cc1ccc(C(=O)n2cnnc2N)cc1 the results were RVFV N-RNA FP 89.
`Cc1nnsc1C(=O)n1nccc1-c1cnn(-c2ccccc2)c1C` gave RVFV N-RNA FP 100.
Screening CC(C)COC(=O)Nc1nnc(SCCOc2ccccc2)s1 returned RVFV N-RNA FP 85.
Screening CCC(=O)N=c1sc2cc(NC(C)=O)ccc2n1CCOC returned RVFV N-RNA FP 94.
For CC(C)c1ccc(N2C(=O)C=CC2=O)cc1 the results were RVFV N-RNA FP 83.
`C[C@](N)(Cc1ccc(O)cc1)C(=O)O` gave RVFV N-RNA FP 95.
`Cc1cc(C)n(CC(O)Cn2c3ccccc3c3ccccc32)c(=O)n1` (configuration not stated) gave RVFV N-RNA FP 95.
Screening Clc1ccc(C2=NNC(c3ccc4c(c3)OCO4)C2)cc1Cl (configuration not stated) returned RVFV N-RNA FP 97.
C/C(Cc1ncn(-c2cc(C)on2)n1)=N\OC(=O)Nc1ccc(Cl)cc1 was read as RVFV N-RNA FP 91.
Screening O=C1N2CCSC2=NC1(Nc1nccs1)C(F)(F)F (configuration not stated) returned RVFV N-RNA FP 98.
Cc1nc2c(=O)oc3ccccc3c2n1C(C)C was read as RVFV N-RNA FP 95.
`CCC(CC)C(=O)Oc1coc(CSc2nc(C)cs2)cc1=O` gave RVFV N-RNA FP 99.
Screening COC(=O)c1c(NC(=O)CCS(=O)(=O)c2ccc(F)cc2)sc(C)c1C returned RVFV N-RNA FP 95.
CN(C)CCCn1c(-c2ccccc2)cc(=S)c2c1CCCC2 was read as RVFV N-RNA FP 95.
For C[C@]12CCC(=O)C=C1CC[C@@H]1[C@@H]2[C@@H](O)C[C@@]2(C)[C@H]1CC[C@]2(O)C(=O)COC(=O)CCC(=O)O the results were RVFV N-RNA FP 109.
`Cc1ccccc1-c1nc(C#N)c(NCCN2CCOCC2)o1` gave RVFV N-RNA FP 92.
COc1ccc(CNC2CCCCC2C)cc1 (configuration not stated) was read as RVFV N-RNA FP 94.
Screening CCN(CC)CP(=O)(c1ccccc1)c1ccccc1 returned RVFV N-RNA FP 96.
For CCc1cccc(C)c1N1C(=O)CC(C)C1=O (configuration not stated) the results were RVFV N-RNA FP 93.
For CCC(=O)Nc1ccc(C(=O)NCC(=O)OC)cc1 the results were RVFV N-RNA FP 92.
`CC(C)(C)C(=O)Cn1nnc(-c2ccc(C(F)(F)F)cc2)n1` gave RVFV N-RNA FP 100.
Screening Cc1onc(-c2ccccc2)c1-c1nnc(-c2ccccc2C(F)(F)F)o1 returned RVFV N-RNA FP 92.
`Cc1cc2cc(CCNC(=O)c3c(-c4ccccc4Cl)noc3C)c(=O)[nH]c2cc1C` gave RVFV N-RNA FP 109.
Screening CC(C)(C)CC(=O)NC(=S)Nc1ccccc1 returned RVFV N-RNA FP 100.
For N#CCc1nc(-c2ccc(C(F)(F)F)cc2)n[nH]1 the results were RVFV N-RNA FP 94.
`NC(=S)NNc1ccc(Cl)c(Cl)c1` gave RVFV N-RNA FP 92.
Cc1ccc(S(=O)(=O)/N=C(\c2ccccc2)n2nnc3ccccc32)cc1 was read as RVFV N-RNA FP 81.
`O=C(CSc1ncn(-c2ccccc2)n1)Nc1ccc(N2CCOCC2)cc1` gave RVFV N-RNA FP 91.
`CNC(=S)N1CCCC1C(=O)Nc1ccc(Cl)cc1` (configuration not stated) gave RVFV N-RNA FP 100.
For COC(=O)Nc1ccc(S(=O)(=O)N(C)CC(F)(F)C(F)F)cc1 the results were RVFV N-RNA FP 96.
CN(C)CC(=O)Nc1ccc(Cl)cc1 was read as RVFV N-RNA FP 98.
Screening COCCNS(=O)(=O)c1ccc2c(c1)Cc1cc(S(=O)(=O)NCCOC)ccc1-2 returned RVFV N-RNA FP 97.
Screening COc1ccccc1C(=O)Nc1cnn(Cc2ccccc2C)c1 returned RVFV N-RNA FP 98.
For Cc1ccc(OC(C)C(=O)N(C)c2ccccc2)cc1 (configuration not stated) the results were RVFV N-RNA FP 101.
CC1CCCN(Cc2cn3c(-c4cccc(Br)c4)nnc3s2)C1 (configuration not stated) was read as RVFV N-RNA FP 108.
Screening C#CCN[C@H](C)Cc1ccccc1 returned RVFV N-RNA FP 92.
O=S(=O)(/N=C/c1cccnc1)c1cccs1 was read as RVFV N-RNA FP 107.
`CS(=O)(=O)Nc1ccc(/C(N)=N/O)cc1` gave RVFV N-RNA FP 93.
CCNS(=O)(=O)c1ccc(NC(=O)Nc2cccc(Cl)c2Cl)cc1 was read as RVFV N-RNA FP 98.
`COc1ccc(OC)c(C(=O)c2coc3c2cc(O)c2ccccc23)c1` gave RVFV N-RNA FP 102.
For Cc1c(CN2CCC(N3CCCCC3)CC2)sc2ccccc12 the results were RVFV N-RNA FP 95.
Screening COCCCN=C1NC(=O)C(CC(=O)Nc2ccc(Cl)cc2)S1 (configuration not stated) returned RVFV N-RNA FP 93.
`N[C@H](CO)C(=O)O` gave RVFV N-RNA FP 92.
`CC1CN(C(N)=S)N(c2ccccc2)C1` (configuration not stated) gave RVFV N-RNA FP 103.
Screening COC(=O)Nc1nnc(SCc2ccc(C)cc2)s1 returned RVFV N-RNA FP 98.
For COC(=O)C1=C(C)NC(C)=C(C(=O)OCCCN2CCC(c3ccccc3)(c3ccccc3)CC2)C1c1cccc([N+](=O)[O-])c1 (configuration not stated) the results were RVFV N-RNA FP 96.

6 entries drawn at random from those above:
Screening C#CCN[C@H](C)Cc1ccccc1 returned RVFV N-RNA FP 92.
`CC1CN(C(N)=S)N(c2ccccc2)C1` (configuration not stated) gave RVFV N-RNA FP 103.
`CS(=O)(=O)Nc1ccc(/C(N)=N/O)cc1` gave RVFV N-RNA FP 93.
Screening COC(=O)Nc1nnc(SCc2ccc(C)cc2)s1 returned RVFV N-RNA FP 98.
O=S(=O)(/N=C/c1cccnc1)c1cccs1 was read as RVFV N-RNA FP 107.
CCNS(=O)(=O)c1ccc(NC(=O)Nc2cccc(Cl)c2Cl)cc1 was read as RVFV N-RNA FP 98.

Returning to the listing with the 5 entries that preceded the break.
Screening COCCCN=C1NC(=O)C(CC(=O)Nc2ccc(Cl)cc2)S1 (configuration not stated) returned RVFV N-RNA FP 93.
`N[C@H](CO)C(=O)O` gave RVFV N-RNA FP 92.
`CC1CN(C(N)=S)N(c2ccccc2)C1` (configuration not stated) gave RVFV N-RNA FP 103.
Screening COC(=O)Nc1nnc(SCc2ccc(C)cc2)s1 returned RVFV N-RNA FP 98.
For COC(=O)C1=C(C)NC(C)=C(C(=O)OCCCN2CCC(c3ccccc3)(c3ccccc3)CC2)C1c1cccc([N+](=O)[O-])c1 (configuration not stated) the results were RVFV N-RNA FP 96.
`C[C@]12CCC3c4ccc(OC(=O)N(CCCl)CCCl)cc4CCC3C1CC[C@@H]2O` (some centres not stated) gave RVFV N-RNA FP 98.
Screening O=C(CCS(=O)(=O)c1ccccc1)Nc1ccc2c(c1)C(=O)NC2=O returned RVFV N-RNA FP 97.
`NCCSc1ncc(-c2ccc(Cl)cc2)[nH]1` gave RVFV N-RNA FP 102.
`CCOC(=O)c1cnn(-c2ccccc2)c1NC(=O)CN1CCOCC1` gave RVFV N-RNA FP 93.
Screening CCCOc1ccc(CC(=O)NC(C)CC)cc1OC (configuration not stated) returned RVFV N-RNA FP 98.
`Cc1nn(-c2ccccc2)cc1/C=N/n1c(-c2ccncc2)n[nH]c1=S` gave RVFV N-RNA FP 98.
`CNC(=O)CN(c1ccc(Cl)cc1Cl)S(C)(=O)=O` gave RVFV N-RNA FP 87.
Screening CCOC(=O)c1sc(=NC(C)=O)n(C)c1C returned RVFV N-RNA FP 81.
CC(C)(C)S(=O)(=O)CCC#N was read as RVFV N-RNA FP 94.
`CCOC(=O)N1CCC(NS(=O)(=O)c2ccc(Cl)s2)CC1` gave RVFV N-RNA FP 86.
CN(N=O)c1cc(O)ccc1O was read as RVFV N-RNA FP 102.
Screening OC(CSc1nncn1-c1ccccc1)C(F)(F)F (configuration not stated) returned RVFV N-RNA FP 98.
For O=C(CCCc1ccccc1)Nc1cccc(C(=O)O)c1 the results were RVFV N-RNA FP 94.
`OCc1cn(-c2ccccc2)nc1-c1ccc2c(c1)OCCO2` gave RVFV N-RNA FP 93.
Screening Cc1cccc(C)c1N1CCN(S(=O)(=O)N2CCCCC2)CC1 returned RVFV N-RNA FP 90.
Screening O=C(CC12CC3CC(CC(C3)C1)C2)NCC(=O)N1CCN(Cc2ccccc2)CC1 returned RVFV N-RNA FP 92.
Screening Cc1cc(C(=O)N/N=C\c2ccccc2)n[nH]1 returned RVFV N-RNA FP 83.
Screening c1ccc2sc(NC3=NCN(Cc4ccc5c(c4)OCO5)CN3)nc2c1 returned RVFV N-RNA FP 91.
`CCN(CC)CCN(C)Cc1cc(OC)c(OC)cc1OC` gave RVFV N-RNA FP 88.
Screening CC#CCC(C)[C@H](O)/C=C/[C@@H]1[C@H]2C/C(=C/CCCC(=O)O)C[C@H]2C[C@H]1O (some centres not stated) returned RVFV N-RNA FP 106.
Screening CSC1=NCCN1C(=O)Cc1ccccc1 returned RVFV N-RNA FP 99.
`O=C1c2ccccc2C(O)(c2ccccc2)N1c1ccc(N2CCOCC2)cc1` (configuration not stated) gave RVFV N-RNA FP 93.
For Cc1cccn2c(=O)c3cc(C(=O)NCC4CCCO4)c(=N)n(CCN4CCOCC4)c3nc12 (configuration not stated) the results were RVFV N-RNA FP 92.
For Cc1nn(C)c2ncc3c(=O)n(Cc4ccccc4Cl)n(C)c3c12 the results were RVFV N-RNA FP 94.
CSC(N)=NCCC[C@H](N)C(=O)O was read as RVFV N-RNA FP 101.
`O[C@@]1(c2ccccc2)C2C3CC4C5C3C1C5C(F)(F)C42` (some centres not stated) gave RVFV N-RNA FP 104.
For CCCCN1CCCC1CNC(=O)c1cc(C#N)c2ccccc2c1OC (configuration not stated) the results were RVFV N-RNA FP 108.
COc1ccc2c(c1)N(C(=O)NC1CCCCC1)C(C)(C)CC2C (configuration not stated) was read as RVFV N-RNA FP 91.
`O=C(Nc1ccon1)c1cc(-c2ccccc2)nc2ccccc12` gave RVFV N-RNA FP 95.
`CC(C)CNc1nc2c(c(=O)[nH]c(=O)n2C)n1CC(C)O` (configuration not stated) gave RVFV N-RNA FP 99.
`CNC(=O)Nc1ccc(C(=O)O)cc1` gave RVFV N-RNA FP 92.
For N#Cc1cccc(C#N)c1-n1cccc1 the results were RVFV N-RNA FP 95.
`CC(C)CC(C)c1cc(N)nc2nc3ccccc3n12` (configuration not stated) gave RVFV N-RNA FP 92.
`CC1CCCC/C1=N/NC(=O)CNc1ccc(Cl)cc1` (configuration not stated) gave RVFV N-RNA FP 110.
Screening CCOCC(=O)Nc1ccccc1C(C)C returned RVFV N-RNA FP 98.

Screening results as filed in PubChem BioAssay.

The list is partial; count on the stated rates, not on these rows.
